Assay outcomes from PubChem BioAssay.
VACV mCherry inh = vaccinia inhibition (mCherry reporter); actives 0.63% (n = 310,000); Potency, µM (doses to about 36.5 µM), inactives show at the top dose activity change, negative = inhibition, actives largely listed as inhibitors; Vaccinia virus mCherry reporter infection, fluorescence; about a quarter of the inactives have no number; AID 720579; active = well fitted inhibition curve with a large enough effect; inconclusive = small, poorly fitted or top-dose-only effect; inactive = no such curve, though single readings can be large or run the other way; tested in A549 cells; note: nearly all actives have a fitted effect of over 35% in size; inactives centre near -10
VACV Venus inh = inhibitors of vaccinia virus (Venus reporter). Vaccinia virus Venus reporter expression, fluorescence. Potency, µM (highest dose often 36.5 µM), without a hit: at the top dose activity change, negative = inhibition, hits mostly inhibitors. actives 0.46% (n = 330,000); active means well fitted inhibition curve with a large enough effect; inconclusive means small, poorly fitted or top-dose-only effect; inactive means no such curve, though single readings can be large or run the other way; tested in A549 cells; note: nearly all actives have a fitted effect of over 30% in size; inactives centre near -10
The depositor's hits bear a star; i = inactive; ? = inconclusive; · = no result given; & = joins results of further samples; [ ] = another dose, or the depositor's remark. % is set by controls: 0 for no effect and ±100 for the full control effect; potency is the fitted concentration of half-maximal effect.

SMILES | VACV mCherry inh | VACV Venus inh
C#CCN(C[C@@H]1[C@@H](OC(=O)NCc2ccc(OC)c(OC)c2)[C@@H](OC(=O)NCc2ccc(OC)c(OC)c2)CN(C(=O)OC(C)C)N1C(=O)OC(C)C)S(=O)(=O)c1ccc(C)cc1 | -4% | -24%
COc1cccc(NC(=O)C2CCCN(c3ncnc4onc(-c5ccc(F)cc5)c34)C2)c1 (stereo not drawn) | -14% | -5%
CN1OC[C@@H]2CN(C(=O)C(C)(C)C)[C@H](c3cccc(Oc4ccccc4)c3)C[C@@H]21 | i | -15%
CC(=O)Oc1ccc(/C=C2/Oc3ccccc3C2=O)cc1 | -5% | -8%
C=CCSC1=N/C(=C\c2cccnc2)C(=O)N1c1ccc(OC)cc1 | -14% | -4%
O=C(Cc1ccc2ccccc2c1)NO | -10% | -9%
COC(=O)C1=C(c2ccc(OCc3ccccc3)c(F)c2)C[C@@H]2CC[C@H]1N2C | i | -17%
CCn1ccc(C(=O)NC2C(=O)N3C(C(=O)O)=C(C)CSC23)n1 (stereo not drawn) | · | ?
CSc1nc2c(c(=O)[nH]1)CCCC2 | -12% | -5%
CC(C(=O)O)N(C(=O)c1ccccc1)c1ccc(F)c(Cl)c1 (stereo not drawn) | i | -12%
Nc1ccc2nc(-c3ccccc3)cnc2c1 | -15% | -1%
C[C@@H]1CN([C@H](C)CO)C(=O)CCCn2nncc2CO[C@@H]1CN(C)S(=O)(=O)c1ccccc1 | -21% | -2%
CC1CCN(C(=O)c2ccccc2NC(=O)c2cccc(S(=O)(=O)N3CCOCC3)c2)CC1 | -9%[1.46 µM] | 0%
Cc1ccc(C)c(S(=O)(=O)N2CCN(CC(=O)Nc3sccc3C#N)CC2)c1 | i | -11%
C[C@H]1C=C(C(=O)NCc2ccccc2)O[C@@H](OCc2ccc(CO)cc2)C1 | 2% | 1%
CCOC(=O)c1ccc(NC(=O)CC2Nc3ccccc3NC2=O)cc1 (stereo not drawn) | -4% | -6%
CC(C)C[C@H]1CNC(=S)N1C[C@H]1CCCN1C[C@H](Cc1ccccc1)N1C[C@H](CC(C)C)N(CCc2ccccc2)C1=S | -5% | -15%
CS(=O)(=O)NCc1nnc(SCc2ccc(C(F)(F)F)cc2)o1 | i | -21%
OCc1ccccc1-c1ccc2nncn2c1 | -1% | 0%
COc1cccc([C@@H]2CC=C(C(=O)O)[C@H](c3ccc(F)cc3)N2S(=O)(=O)c2ccc(C)cc2)c1 | -8% | -11%
C[C@H]1CN([C@@H](C)CO)C(=O)c2cc(Br)cnc2O[C@@H]1CN(C)C(=O)NC1CCCCC1 | -3% | -9%
CCN(CC)CCNC(=O)C1CCC(=O)N1CCc1ccccc1 (stereo not drawn) | -19% | -9%
CCc1cccc(NC(=O)c2ccc(Cn3c(=O)[nH]c4ccsc4c3=O)cc2)c1 | -6% | 5%
CCOC(=O)/C=C1\SCC(=O)N1CC(=O)Nc1ccc2c(c1)CCC2 | -12% | 5%
CCOc1ccc(N(C(C)C(=O)N2CCCC2)S(C)(=O)=O)cc1 (stereo not drawn) | -8% | 12%

3 entries already listed, sorted by formula weight, largest number first.
SMILES | VACV mCherry inh | VACV Venus inh
C[C@@H]1CN([C@H](C)CO)C(=O)CCCn2nncc2CO[C@@H]1CN(C)S(=O)(=O)c1ccccc1 | -21% | -2%
Cc1ccc(C)c(S(=O)(=O)N2CCN(CC(=O)Nc3sccc3C#N)CC2)c1 | i | -11%
OCc1ccccc1-c1ccc2nncn2c1 | -1% | 0%

Entries of single compounds, looked up by structure:
Record of CCOc1ccc(N(C(C)C(=O)N2CCCC2)S(C)(=O)=O)cc1 (stereo not drawn) : VACV mCherry inh = -8%; VACV Venus inh = 12%
Record of CCc1cccc(NC(=O)c2ccc(Cn3c(=O)[nH]c4ccsc4c3=O)cc2)c1 : VACV mCherry inh = -6%; VACV Venus inh = 5%

(listing goes on)
SMILES | VACV mCherry inh | VACV Venus inh
COc1ccc(Cl)cc1S(=O)(=O)NCc1ccc2c(c1)CCN2C(=O)c1cccc(C)c1 | -14%[7.34 µM] | -8%[7.34 µM]
COc1ccc(CC2(CCc3ccccn3)C(=O)NC(=O)N(c3ccccc3C)C2=O)cc1OC (stereo not drawn) | -3% | -15%
Cc1ccc(Nc2c(-c3c[nH]c4ccccc34)nc3ccccn23)cc1 | i | -11%
Cc1cn(C2CCCO2)c(=O)nc1N (stereo not drawn) | -10% | -4%
COc1ccc(CNc2nc3ccccc3n2Cc2ccccc2)cc1OC | ? | ?
C/C=C\C=C/C(=O)Nc1cccc(C2=NOC3(C2)C[C@@H](C(N)=O)N(C(=O)/C=C/CC)C3)c1 (stereo partly drawn) | i | -9%
CCc1ccccc1NC(=O)C1CCCN(S(=O)(=O)c2cccc3nsnc23)C1 (stereo not drawn) | -10% | -6%
Cc1cc(Nc2ccccc2)n(-c2nc3ccccc3[nH]2)n1 | · | ?
Cc1c(C(=O)NCCN(C)C)sc2nc3n(c(=O)c12)CCC3 | 1% | -13%
Cc1ccc(C(=O)OC2CCOC2=O)cc1NC(=O)c1ccco1 (stereo not drawn) | · | ?
COc1cc2sc(-c3ccc(S(C)(=O)=O)cc3)c(-c3ccc4c(c3)OCO4)c2cc1OC | ? | -18%
C=CCn1c(SCC(=O)Nc2ncc(Cc3ccc(C)c(Cl)c3)s2)nnc1-c1ccncc1 | i | -12%
CCCCSc1nc2c(cnn2-c2ccc(F)cc2)c(=O)[nH]1 | -11% | -13%
CCOc1ccccc1OCCCn1c(-c2ccc(Cl)cc2)nc2ccccc2c1=O | -8% | -19%
CCN(CC1CCCO1)C(=O)C1CCN(C2CCN(Cc3ccccc3C)CC2)CC1 (stereo not drawn) | -2% | -10%
O=C(NCc1cccnc1)C(=O)N/N=C/c1ccccc1[N+](=O)[O-] | i | 1%
O=C(Nc1ccc2nc(-c3ccccc3)[nH]c2c1)c1ccco1 | -2% | -12%
CN(C)c1ccnc(-n2cccc2/C=N/OCc2ccccc2)c1C#N | · | -8%
COc1cc(C(=O)NC(=S)N2CCCCCC2)cc(OC)c1OC | 0% | 8%
O=C(NNc1nc2ccccc2nc1C(F)(F)F)c1ccccc1 | · | -22%
O=C1NC(=O)C2C1C(c1cccs1)NN2Cc1ccccc1 (stereo not drawn) | -15% | -1%
Cc1ccc(/C=N/n2c(=O)c(C(C)(C)C)nn3cnnc23)cc1 | -9% | -7%
Cc1ccccc1OCc1nnc(SCC(=O)NC2CCCCC2)o1 | i | 3%
CCc1ccccc1Nc1nc(N)nc(CSc2nnnn2C)n1 | i | -17%
CC(=O)CSc1nnc(-c2ccc3c(c2)OCO3)o1 | -21% | -13%

Among those listed so far, these contain an NH in an aromatic ring.
SMILES | VACV mCherry inh | VACV Venus inh
CSc1nc2c(c(=O)[nH]1)CCCC2 | -12% | -5%
CCc1cccc(NC(=O)c2ccc(Cn3c(=O)[nH]c4ccsc4c3=O)cc2)c1 | -6% | 5%
Cc1ccc(Nc2c(-c3c[nH]c4ccccc34)nc3ccccn23)cc1 | i | -11%
Cc1cc(Nc2ccccc2)n(-c2nc3ccccc3[nH]2)n1 | · | ?
CCCCSc1nc2c(cnn2-c2ccc(F)cc2)c(=O)[nH]1 | -11% | -13%
O=C(Nc1ccc2nc(-c3ccccc3)[nH]c2c1)c1ccco1 | -2% | -12%

Following part.
SMILES | VACV mCherry inh | VACV Venus inh
CC(=O)c1cccc(Nc2nc(-c3ccccc3)nc3ccccc23)c1 | ? | -27%
CCOC(=O)c1c(NC(=O)c2cccs2)sc2c1CCCC2 | -18% | -9%
Cc1cccc(NC(=O)c2nc[nH]c2C(=O)NCCCNC(=O)c2[nH]cnc2C(=O)Nc2cccc(C)c2)c1 | -9% | ?
O=C(NCc1cccnc1)c1ccccc1[N+](=O)[O-] | -15% | -12%
COc1ccc(S(=O)(=O)N2CCCCC2)cc1NC(=O)c1ccc(OC)c(OC)c1 | -13% | -4%
CN(C)c1ccc(C(C(=O)NCC2CCCO2)N(Cc2ccccc2)C(=O)c2snc(C(N)=O)c2N)cc1 (stereo not drawn) | i | -9%
O=C(COC(=O)Cc1cccc(C(F)(F)F)c1)Nc1cccc2ccccc12 | -6% | -5%
CCCN1CCN(CCNC(=O)Nc2cc(OC)cc(OC)c2)CC1 | 0% | -6%
O=C1CNC(=O)/C(=C\c2ccc(F)cc2)N1 | -18% | -12%
Cc1[nH]c2ccccc2c1/C=N/NC(=O)c1ccccc1 | -23% | ?
Cc1nn(Cc2c(Cl)cccc2Cl)c(C)c1NC(=O)/C=C/c1cnn(C)c1C | -8% | 1%
O=C(NCCC1CCCCN1S(=O)(=O)c1ccccc1)C(=O)Nc1ccccc1 (stereo not drawn) | -21% | -8%
COc1cccc(-n2c(O)c(C=Nc3c(C)n(C)n(-c4ccccc4)c3=O)c(=O)[nH]c2=O)c1 | -12% | 2%
Nc1c(-c2ccccc2)c(CN2CCOCC2)nn1-c1ccc(C(=O)O)cc1 | -9% | -5%
CCCS(=O)(=O)c1nc(S(=O)(=O)c2ccc(C)cc2)c(N2CCOCC2)s1 | i | -6%
CC(C)CC(c1nnnn1Cc1ccc2c(c1)OCO2)N1CCC(C(N)=O)CC1 (stereo not drawn) | i | -11%
CN1CCN(C(=O)CN(c2cc(C(F)(F)F)ccc2Cl)S(C)(=O)=O)CC1 | i | -2%
Cc1cc(C)cc(C(=O)N2CCN=C2c2ccccc2)c1 | -17% | -19%
CCOc1ccccc1/C=C/c1cc(C(=O)O)c2ccccc2n1 | i | -6%
O=C(NCC1CCCO1)c1ccc2c(c1)S(=O)(=O)c1ccccc1C2=O (stereo not drawn) | -1% | 6%
COc1ccccc1C(=O)N[C@@H]1c2ccccc2C2(CCN(Cc3ccc4c(c3)OCO4)CC2)[C@H]1O | -28% | -18%
CCN(CC(=O)NCc1cccs1)C(=O)c1ccc(-c2cccc(C(F)(F)F)c2)o1 | ? | -16%
COc1ccc(NC(=O)NNC(=O)c2ccc3ccccc3c2O)c(OC)c1 | -27% | -16%
CSc1c(CC(=O)Nc2ccccc2)n(Cc2ccccc2)c2ccccc12 | i | -13%
CCn1cc(/C=N\NC(=O)COc2cccc(C)c2C)c(C)n1 | -23% | -11%
SMILES | VACV mCherry inh | VACV Venus inh
CCc1ccc(N(CC(=O)NCc2ccc(F)cc2)C(=O)c2csnn2)cc1 | -6% | 15%
O=C(CSc1ccc2ccccc2c1)Nc1ncccn1 | -4% | 6%
CCOC(=O)C1=C(N)n2c(s/c(=C\c3cccnc3)c2=O)=C(C(=O)OC)C1c1cccnc1 (stereo not drawn) | -15% | -1%
OC(COCC1COc2ccccc2O1)CN1CCN(c2ccccn2)CC1 (stereo not drawn) | ? | 10%&-18%
Oc1cccc(-c2nc3ccc4ccccc4c3c3c2CCC3)c1 | ? | ?
O=C(O)c1ccccc1/C=N/NC(=S)NCc1ccccc1 | i | 1%
Nc1ccc2nc(CCc3ccccc3)[nH]c2c1 | -16% | -6%
O=S(=O)(Nc1cccc(-n2cnnn2)c1)c1ccc(Cl)cc1 | ? | -5%
COc1ccccc1CNC(=O)CCC1N=C2c3ccccc3N=C(SCC(=O)NCCc3ccc(OC)c(OC)c3)N2C1=O (stereo not drawn) | i | -10%
COc1ccc(Cn2nnc3c(C)n[nH]c(=O)c32)cc1 | i | -4%
O=C(NCCc1ccc(Cl)cc1)C1CCN(S(=O)(=O)N2CCCC2)CC1 | i | -10%
Cc1csc2nc(COC(=O)c3cccc(NC(=O)c4cccc(Cl)c4)c3)cc(=O)n12 | -14% | -18%
CC1CC(C)(C)NC(=S)N1CCCC(=O)Nc1ccc(F)c(F)c1 (stereo not drawn) | i | -19%
CCOC(=O)N1CCC(NC(=O)c2cc(C(=O)Nc3ccc(OC)c(OC)c3)ccc2CO)CC1 | 0% | 2%
CCCCCOc1ccc(/C=c2\sc3nc(=O)c(-c4ccccc4)nn3c2=O)cc1OC | i | -11%
CC(OC(=O)c1ccc2ccccc2n1)C(=O)Nc1ccc(N2CCOCC2)cc1 (stereo not drawn) | i | -3%
O=C(Nc1ccccc1C(F)(F)F)N1CCN(c2ccc3nnc(-c4ccc(F)cc4)n3n2)CC1 | ? | ?
COCCNC(=O)Cn1ncc2c(C)n(Cc3ccc(C)cc3)c(C)c2c1=O | 7% | 1%
COc1cc2c(cc1OC)C(C(=O)NCCN(C)C)C(c1cccs1)N(C)C2=O (stereo not drawn) | -1% | -21%
COc1cccc(-c2ncc3ccccc3c2COC(=O)N2CCOCC2)c1 | -5% | -5%
CCc1ccc(NC(=S)N(CCCN2CCOCC2)Cc2ccccn2)cc1 | -20% | -17%
O=C(CN1C(=O)/C(=C/c2ccccc2Cl)SC1=S)NC1C=CS(=O)(=O)C1 (stereo not drawn) | -9% | -4%
Cc1ccc(C2C3=C(CCCC3=O)Nc3nc(SCC(=O)NCc4ccco4)[nH]c(=O)c32)cc1 (stereo not drawn) | -15% | -2%
CCOc1ccc(-c2cn3c(n2)sc2cc(C(=O)N4CCCC(C)C4)ccc23)cc1 (stereo not drawn) | ? | ?
CCCCc1nn2c(=O)cc(COC(=O)c3ccc(NC(=O)CCc4ccccc4)cc3)nc2s1 | i | -9%
SMILES | VACV mCherry inh | VACV Venus inh
CCCCN(C)C(=O)c1nc2ccccn2c1CN1CCN(C/C=C/c2ccccc2)CC1 | -25% | -7%
COc1ccc(OC)c(S(=O)(=O)N2CCC(C(=O)N3CCCCCC3)CC2)c1 | -9% | -6%
Cc1c(C(=O)NCc2ccccc2C(F)(F)F)sc(=O)n1Cc1ccc(Cl)c(Cl)c1 | i | -8%
COC(=O)c1onc(-c2c(C)cc(C)cc2C)c1C(=O)OC | · | -1%
N#Cc1cc(Nc2c(N)nc[nH]c2=O)c([N+](=O)[O-])cc1C#N | -10% | -4%
CCCN1C2CCCC1CC(NC(=S)Nc1cc(C)ccc1C)C2 (stereo not drawn) | -3% | -12%
COCC(C)NC(=O)c1ccc(Cl)c(Cl)c1 (stereo not drawn) | -12% | -14%
